# PMP22 txn prim = Cell-based coincidence reporter assay to measure PMP22 gene transcription in S16 Pmp22-F2sN cells - Primary screen; S16 Pmp22-F2sN Schwann cells (luciferase reporters placed in the Pmp22 gene), FLuc/NLuc coincidence luminescence, 24 h; Potency, µM (doses to about 57.5 µM), inactives show at the top dose activity change, negative = inhibition, actives largely listed as inhibitors; 43,000 compounds, 2% hits; active = clear falling dose curves in both reporters; inconclusive = both reporters move, but less clearly or upward; inactive = either reporter flat; the % is the NLuc reporter signal; also: % is scaled to controls: 0 for no effect and ±100 for the full control effect; some results filed as inactive show a strong effect at the top dose
#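 Schwann cells carrying the coincidence reporter were exposed to library compounds for 24 h at 37C, then lysed and read for FLuc and, after quenching, NLuc luminescence on a CCD imager.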
# HTT prom inh = Primary qHTS for Identification of Small Molecule Inhibitors of Huntingtin Promoter Activity. HEK293 HTT promoter firefly luciferase reporter (activity 0% = vehicle and -100% = no light), 24 h. Potency, µM (highest dose often 57.5 µM), for the others: top-dose activity change, negative = inhibition, usual class: inhibitors. 48,000 compounds, 0.93% hits. AID 1508623, 2021; active = well fitted inhibition curve with a large enough effect; inconclusive = small, poorly fitted or top-dose-only effect; inactive = no such curve, though single readings can be large or run the other way; also: nearly all actives have a fitted effect of over 50% in size
#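 HEK293 Fluc reporter, 2,500 cells/well, 24 h pre-culture; cpds up to 57.5 uM final, 24 h 37 degrees C; Dual-Glo, 10 min RT; normalized vehicle = 0%, zero RLU = -100%.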
# An asterisk follows results filed as active; ? = inconclusive; . = no result given; & = joins results of further samples; [ ] = another dose, or the depositor's remark. Potency is read from the fitted curve at half-maximal effect.
# Under each structure – PMP22 txn prim, HTT prom inh
> COc1cccc(C(=O)Oc2c(Sc3ccc(C)cc3)c(C)nn2C(C)(C)C)c1OC
    ?, ?
> CCOc1ccccc1NC(=O)CSc1nnc(N)s1
    -18.1%, -12.4%[11.5 µM]
> CNc1oc(/C=C/c2cc(OC)c(OC)c(OC)c2)nc1C#N
    -10.7%, 17.4%
> CC(=O)c1ccc(NC(=O)Cn2nc(N3CCN(c4ccccc4)CC3)ccc2=O)cc1
    -7.9%, -20.6%
> Cc1ccc2cc3cc(C(=O)N4CCN(c5ccccc5)CC4)oc3nc2c1
    0.3%, -9.2%
> Cc1oc2ncnc(N3CCCCC3)c2c1C(=O)NCC1CCN(Cc2cccc(F)c2)CC1
    ?, 0.7%
> COc1ccc(-c2noc(CCCC(=O)Nc3cccc(Cl)c3C)n2)cc1
    ?, ?
> CCOCCc1nn2c(=O)cc(COC(=O)c3cccs3)nc2s1
    9.5%, 26.9%
> O=C(Nc1ccccc1F)C(c1ccccc1)N1Cc2ccccc2C1=O (stereo not drawn)
    13.1%, -9.4%
> COCCn1c(SCC(=O)Nc2cc(Cl)ccc2OC)nc2c([nH]c3ccccc32)c1=O
    ?, -18.5%
> Cc1cccc(N2CCN(C(=O)c3cnn(-c4ccccc4Cl)c3C3CCN(C(=O)OC(C)(C)C)CC3)CC2C)c1 (stereo not drawn)
    -8.7%, -3.9%
> CCCNC(=O)CN1C(=O)COc2ccc(S(=O)(=O)N3CCC(C)CC3)cc21
    -9.9%, -4.0%
> CCCCNC(=O)c1cccc(-n2c(C)nc3cccnc32)c1
    -5.2%, -15.5%
> COc1cccc(C2CC(=O)Nc3cc4c(cc32)OCO4)c1OC(C)C (stereo not drawn)
    ?, ?
> CC(=O)[C@]1(O)Cc2c(O)c3c(c(O)c2[C@@H](O[C@H]2C[C@H](N)[C@@H](O)[C@H](C)O2)C1)C(=O)c1ccccc1C3=O
    ., ?
> NC(=O)CSc1nc2c(oc3ccccc32)c(=O)n1Cc1ccccc1
    -17.2%, -7.2%
> Cc1cccc(-c2nc(SCC(=O)NCC3CCCO3)c3c(=O)n(C)c(=O)n(C)c3n2)c1 (stereo not drawn)
    -15.6%, 13.5%
> CS(=O)(=O)OCCCCOS(C)(=O)=O
    ., 8.9%&5.2%
> CCCOc1ccc(-c2cccc(NS(=O)(=O)c3cc(OC)ccc3OC)c2)nn1
    -1.2%, ?
> Cc1ccc(C(=O)CSc2nnc3ccc4ccccc4n23)cc1
    -27.4%, 6.4%

# (continued)
# Under each structure – PMP22 txn prim, HTT prom inh
> CCOc1ccccc1NC(=O)Cn1c(=O)n(Cc2ccccc2)c(=O)c2c3c(sc21)CN(C(C)=O)CC3
    -6.9%, -13.3%
> COc1ccc(-n2c(SCC(=O)Nc3ccc(Cl)c(C)c3)nc3n[nH]c(C)c3c2=N)cc1
    ?, ?
> Cc1oc(-c2ccccc2)nc1CNC(=O)NC1CCCCC1
    ?, 0.0%
> COc1ccccc1C(=O)Nc1nnc(SCc2cc(=O)c3ccccc3[nH]2)s1
    ?, ?
> Cc1cc(C(F)F)n2nc(C(=O)Nc3ccc(C(C)C)cc3)nc2n1
    ?, 1.5%
> CC(Oc1ccccc1)C(=O)Nc1ccccc1C(=O)OCc1cc(=O)n2nc(C(C)C)sc2n1 (stereo not drawn)
    -7.2%, -6.9%
> Cc1ccc(-c2cc3ncc4c(n3n2)-c2cc(F)ccc2OC4)cc1
    -7.8%, 1.3%
> CN(CC(=O)Nc1ccc(Cl)cc1F)S(=O)(=O)c1ccc2c(c1)n(C)c(=O)c(=O)n2C
    -21.0%, -20.0%
> COc1ccccc1/C=C(\C#N)C(=O)NCC1CCCO1 (stereo not drawn)
    -33.5%, 1.9%
> N#Cc1nc(/C=C/c2ccc(F)cc2)oc1N1CCCCCC1
    -22.0%, -10.2%
> Cc1cccc(C(=O)N2CCc3cc(CNC(=O)c4ccnn4C)ccc32)c1
    -102.7%, ?
> CCOC(=O)C1CCN(C(=O)c2ccc3c(c2)sc2nc(-c4ccc(C)cc4)cn23)CC1
    -22.1%, 12.6%
> Cc1cccc(NC(=O)C2CCCN(S(=O)(=O)c3ccc4c(c3)oc(=O)n4C)C2)c1C (stereo not drawn)
    -15.7%, -7.1%
> COc1ccc(CNC(=O)c2cnc(N3CCCC3)nc2C)cc1
    14.6%, -19.3%
> CCN(CC)S(=O)(=O)c1ccc2c(c1)N(CC(=O)NCCc1ccccc1)C(=O)CO2
    -10.6%, -6.6%
> COc1ccc(CNC(=O)CN2C(=O)COc3ccc(S(=O)(=O)N4CCCCC4)cc32)cc1
    18.3%, -3.2%
> COc1ccc(S(=O)(=O)N2CCC(N3CCN(Cc4ccc(F)cc4)C(=O)C3=O)CC2)cc1
    -7.6%, -13.8%
> CCC(C(=O)NCCc1ccc(SC)cc1)n1nc(C)c2sc3ccccc3c2c1=O (stereo not drawn)
    -13.9%, -19.0%
> Cc1cccc(CCNC(=O)c2nc(-c3ccc(Cl)cc3)n3c2CCCCC3)c1
    ?, -21.2%
> CCOC(=O)C1CCCN(C(=O)c2nn(-c3ccc(C)cc3)c(=O)n(C)c2=O)C1 (stereo not drawn)
    -28.4%, 1.5%

# Next section
# Under each structure – PMP22 txn prim, HTT prom inh
> CCN1CCN(c2cc(-c3ccc(F)cc3)c3c(n2)CCCCCC3)CC1
    ., 4.7%[25.2 µM]
> O=S(=O)(Nc1nc2n(n1)C(c1ccc(F)cc1)C=C(c1ccc(Cl)cc1)N2)c1ccccc1 (stereo not drawn)
    -45.6%, -4.0%
> CCCN(CCC)CCCNC(=O)Cn1ncc2c3ccccc3n(Cc3ccccc3)c2c1=O
    -19.1%, 17.3%
> CCN(CC)C(=O)Cn1cc(SCC(=O)Nc2cccc(C)c2)c2ccccc21
    -7.7%, ?
> O=C(CCC1N=C2c3ccccc3N=C(SCc3ccc(F)cc3)N2C1=O)NCc1ccc(F)cc1 (stereo not drawn)
    ?, ?
> CCCOc1ccc(-c2nonc2NC(=O)c2cc(OC)c(OC)c(OC)c2)cc1OCCC
    -8.0%, ?
> CC(=O)N1CCc2cc(CNC(=O)Nc3ccccc3C(F)(F)F)ccc21
    9.3%, -1.9%
> CCCCC(=O)OCc1cc(=O)n2nc(C3CCCCC3)sc2n1
    -0.8%, -13.7%
> Cc1cccc2c1-c1sc(C(=O)NCCCN3CCN(c4cccc(Cl)c4)CC3)cc1CO2
    ?, ?
> COc1ccc(N2CC(NC(=O)COc3ccc(F)cc3)CC2=O)cc1OC (stereo not drawn)
    0.1%, -8.2%
> Cc1cc(Br)ccc1NC(=O)Cn1cc(S(=O)(=O)N2CCN(c3ccccc3F)CC2)c2ccccc2c1=O
    -18.4%, 1.5%
> Cc1ccc2nc(NC(=O)CSc3nccn3Cc3ccccc3)sc2c1
    -50.4%, ?
> COc1cccc(C(=O)Nc2ccc(-n3nncc3-c3ccccc3)cc2)c1OC
    -2.0%, -33.6%
> CCc1cccc(NC(=O)C2CCCN2S(=O)(=O)c2ccc3nc(-c4ccccc4)[nH]c3c2)c1 (stereo not drawn)
    ?, -29.6%
> COc1ccccc1-c1cc(C(F)(F)F)nc(S(=O)(=O)CCCC(=O)Nc2cc(OC)c(OC)c(OC)c2)n1
    -0.3%, -6.8%
> O=C(O)c1ccccc1C(=O)Nc1ccc(-c2ccccc2)cc1
    ., ?
> CCc1cc(=O)[nH]c(SCc2nc(-c3ccccc3C)no2)n1
    -4.4%, -4.3%
> Cc1ccc(NC(=O)Cc2ccc(NC(=O)N3CCCCc4ccccc43)cc2)cc1Cl
    -34.2%, -14.9%
> CC(=O)c1cccc(NC(=O)CSc2nc3c(=O)n(C)c(=O)n(C)c3n2C)c1
    -6.6%, 3.7%
> Clc1ccc(C(c2ccccc2)c2c[nH]c3ccccc23)s1 (stereo not drawn)
    ?, -23.5%

# Next section
# Under each structure – PMP22 txn prim, HTT prom inh
> COc1ccc(CC(=O)NCC(c2ccc(N(C)C)cc2)N2CCOCC2)cc1OC (stereo not drawn)
    18.5%, -5.2%
> Cc1ccc(NC(=O)Cn2c(=O)cc(-c3ccccc3)c3c(C)nn(C)c32)c(Cl)c1
    ?, -6.6%
> CCC(NC(=O)Nc1ccc(OC)c(OC)c1)c1c(-n2cccc2)sc2c1CCN(C)C2 (stereo not drawn)
    54.5%, -13.4%
> Cc1cccc(NC(=O)C(=O)NCC(c2cccnc2)N2CCN(Cc3ccccc3)CC2)c1 (stereo not drawn)
    -45.8%, ?
> CC(=O)NCCNC(=O)CCCc1nnc2n(CCC(C)C)c(=O)c3sccc3n12
    -16.2%, -9.1%
> CC(C)c1ccc(NS(=O)(=O)c2ccc3nc(-c4ccccc4)[nH]c3c2)cc1
    ?, ?
> COc1ccccc1CNC(=O)C(=O)NCC(c1cccnc1)N1CCN(c2ccccc2)CC1 (stereo not drawn)
    -19.1%, ?
> COC(=O)c1ccccc1NC(=O)c1ccc(-c2nc(CSc3ccc(C)cc3)c(C)o2)cc1
    -2.4%, -20.8%
> Cc1c(O)nc(SCC(=O)Nc2ccc(Cl)cc2Cl)n(-c2ccc(F)cc2)c1=O
    -105.1%, -13.5%
> COc1ccc(NC(=O)CCc2nc3cccnc3n2-c2ccccc2)cc1Cl
    5.9%, ?
> CCCCn1c(-c2ccc(C)cc2)c(C)n2c3c(=O)n(C)c(=O)n(C)c3nc12
    ?, -26.9%
> O=C(NCCC1=CCCCC1)c1ccc2c(c1)ncn2-c1cccc(Cl)c1
    1.2%, 21.3%
> Cn1c(=O)n(C)c2cc(N3CCOCC3)c(NC(=O)c3c(F)cccc3F)cc21
    -8.4%, 6.8%
> CCN1CCc2c(sc(-n3cccc3)c2C(C)NC(=O)Nc2ccc(Br)cc2)C1 (stereo not drawn)
    ?, -19.9%
> CCOC(=O)c1c(C)[nH]c(C)c1S(=O)(=O)N1CCN(c2cccc(C(F)(F)F)c2)CC1
    ?, ?
> Cn1c(=O)c2sccc2n2c(CCCC(=O)NC3CCCCC3)nnc12
    -32.4%, -29.9%
> Cc1nc2c(C(=O)NCCc3ccc(Cl)cc3)c[nH]n2c(=O)c1Cc1ccccc1F
    -32.1%, -8.9%
> CCCCSc1nnc2n(-c3ccc(OC)cc3)c(=O)c3c4c(sc3n12)COC(C(C)C)C4 (stereo not drawn)
    -7.5%, -23.0%
> Cc1nc2c(-c3ccccc3)c(C)nn2c(C)c1CCC(=O)NCc1ccccc1Cl
    ?, -7.8%
> Cc1c(Cl)cccc1NC(=O)C(C)n1c(=O)cc(C)c2c(C)nn(-c3ccccc3)c21 (stereo not drawn)
    -10.4%, 0.8%

# Two of these compounds in a different format.
Cc1nc2c(-c3ccccc3)c(C)nn2c(C)c1CCC(=O)NCc1ccccc1Cl
  PMP22 txn prim: ?; HTT prom inh: -7.8%

Cc1c(Cl)cccc1NC(=O)C(C)n1c(=O)cc(C)c2c(C)nn(-c3ccccc3)c21 (stereo not drawn)
  PMP22 txn prim: -10.4%; HTT prom inh: 0.8%

# Two compounds picked at random from those above:
# Under each structure – PMP22 txn prim, HTT prom inh
> Cc1c(Cl)cccc1NC(=O)C(C)n1c(=O)cc(C)c2c(C)nn(-c3ccccc3)c21 (stereo not drawn)
    -10.4%, 0.8%
> Cn1c(=O)c2sccc2n2c(CCCC(=O)NC3CCCCC3)nnc12
    -32.4%, -29.9%

# Going on with the list:
# Under each structure – PMP22 txn prim, HTT prom inh
> COc1ccccc1CNC(=O)c1ccc(-c2nc(CS(=O)c3ccccc3)c(C)o2)cc1 (stereo not drawn)
    -1.5%, -22.0%
> CCC(Sc1ncnc2sc3c(c12)CCCC3)C(=O)OCC(C)C (stereo not drawn)
    ?, -10.5%
> COCCCNC(=O)CCc1c(C)nc2nc(-c3cc(OC)cc(OC)c3)nn2c1C
    5.7%, -4.9%
> O=C(CN1CCN(Cc2ccccc2Cl)C1=O)NCCc1ccc(Cl)cc1
    -7.2%, -17.5%
> Cc1cc(C)nc(-n2nc(C)c3c2N(Cc2ccccc2C)C(=O)CC3c2ccc(Cl)cc2)n1 (stereo not drawn)
    ?, -18.2%
> Cc1ccc2c(c1)CC(C)N2S(=O)(=O)c1nnc(NC(=O)C(C)C)s1 (stereo not drawn)
    3.4%, -17.6%
> Cc1ccc(-n2nc(C(=O)N3CCN(c4cccc(C(F)(F)F)c4)CC3)c3c4ccccc4n(C)c3c2=O)cc1
    0.7%, -13.7%
> Cc1cccc(OCC(=O)OCc2cc(=O)n3nc(C4CC4)sc3n2)c1
    -4.7%, -10.0%
> CCCNc1ccc(-c2nc(-c3ccncc3)no2)cc1[N+](=O)[O-]
    3.3%, -6.9%
> COc1ccc(Cn2ccc3nc(C)c(C(=O)NCc4cccc(OC)c4)cc3c2=O)cc1
    -18.0%, -22.4%
> CC(=O)Nc1ccc(-n2c(CCC(=O)O)ccc2-c2ccc(Br)cc2)cc1
    33.3%, -8.8%
> CCOC(=O)N[C@H](Cc1c[nH]c2ccccc12)C(=O)Nc1cccc(Cl)c1
    15.1%, -26.7%
> CCOc1ccc(C(=O)Nc2cc(-c3nc4ccccc4o3)ccc2C)cc1Cl
    1.1%, 19.7%
> COc1ccc(Nc2nc(C)nc(N)c2S(=O)(=O)c2ccccc2)cc1
    -14.5%, -4.6%
> COc1ccc(NC(=O)CCNS(=O)(=O)c2ccc3c(c2)CCCC(=O)N3)cc1
    -18.2%, -1.5%
> O=C1CCCc2cc(S(=O)(=O)N3CCCC(C(=O)NCc4ccc(Cl)cc4)C3)ccc2N1 (stereo not drawn)
    ?, ?

# Compounds were not picked by outcome; any-hit rate near 2.4%.
